# rRNA inh HTS: inhibitors of bacterial rRNA selective over humanized ribosomes. E. coli WT GFP vs humanized-ribosome RFP mutants, fluorescence, 24 h; hits give low values; DMSO median 0, no signal -100. GFP signal change (wild-type ribosome), % (concentration not given with the values). 350,000 tested, 1.6% active. AID 720706;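 active = significant combined selectivity score with lowered wild-type GFP, culture density cut under 30%, mutant RFP and density less affected; inactive = any of these conditions unmet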; also: one replicate is shown; some compounds called inactive have numbers as strong as hits
# Beta cell apopt: beta cell apoptosis inhibition; AID 435005; protection from apoptosis, % (concentration not given with the values); 300,000 tested, 0.8% active; INS-1E cytokine-induced death, ATP luminescence, 48 h; percent of positive-control rescue, neutral wells zero;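 active = all replicates at 75% or more, or half of them and the mean; inconclusive = half reach 75% but not the mean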;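 also: 0% = cytokine-treated negative control wells and 100% = positive control rescue; higher means more ATP so stronger rescue from cytokine killing; wells of about 40 µL received 100 nL stock; the first replicate is given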
# Bfl-1 A1 inh: inhibitors of the anti-apoptotic protein A1, read as caspase activation. MEF A1-2A-BIM cells, Caspase-Glo 3/7 luminescence, 3 h; percent of clofoctol response, vehicle zero. AID 2462. 330,000 tested, 0.066% active. caspase activation, % (concentration not given with the values);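 active = over half of replicate activation scores above 10%, or exactly half above 10 with the replicate mean above 10; inconclusive = replicate mean below 10 yet half the replicates above 10; inactive = over half of replicates below 10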;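 also: wells of about 30 µL received 50 nL stock; many hits fall short of the cut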
# MLL AF4-AF9 inh: MLL-AF4/AF9 protein interaction inhibition; AID 651704; AlphaScreen, biotin-AF4 peptide binding to FLAG-AF9; P42568; 350,000 tested, 0.47% active; inhibition, % at 10 µM;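 active = every replicate reaching a set inhibition limit, whatever the replicate mean, cut at about 25% in these data; inconclusive = mean inhibition reaches that limit but some replicates miss it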;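 also: 0% = plate neutral control median and 100% = total signal loss; the record names both 10 and 1 µM as test concentration; the first replicate is given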
# Target sequence (P42568 whole entry, looked up): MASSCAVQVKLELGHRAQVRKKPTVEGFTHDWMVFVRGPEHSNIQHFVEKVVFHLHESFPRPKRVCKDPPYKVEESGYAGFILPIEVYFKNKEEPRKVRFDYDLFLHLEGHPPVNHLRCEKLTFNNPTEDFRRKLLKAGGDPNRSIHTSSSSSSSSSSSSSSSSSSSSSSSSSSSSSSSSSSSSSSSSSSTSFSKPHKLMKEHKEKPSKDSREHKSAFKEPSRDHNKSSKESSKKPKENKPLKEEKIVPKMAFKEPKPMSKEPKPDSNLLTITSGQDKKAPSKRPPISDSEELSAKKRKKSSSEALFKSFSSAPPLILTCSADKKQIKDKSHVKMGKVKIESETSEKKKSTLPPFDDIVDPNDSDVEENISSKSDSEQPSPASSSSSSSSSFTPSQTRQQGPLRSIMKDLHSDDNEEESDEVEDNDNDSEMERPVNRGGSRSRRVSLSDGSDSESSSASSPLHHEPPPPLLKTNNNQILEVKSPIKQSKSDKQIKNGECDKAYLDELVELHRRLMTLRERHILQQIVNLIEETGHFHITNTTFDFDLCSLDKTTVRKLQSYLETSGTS
# E coli growth: inhibitors of Escherichia coli growth; OD600 absorbance (concentration not given with the values); OD600, 23 h; hits give low values; 330,000 tested, 0.21% active;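 active = OD600 absorbance below the run mean of sample wells minus 3.6 SD, in any replicate, cut at about 0.56 in these data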;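 also: stock transfer was 300 nL into about 60 µL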
# UCH37 inh: blocks the human deubiquitinase UCH37 | purified proteasome/UCH37, Ub-AMC cleavage fluorescence | inhibition, % (no concentration beside the values) | 330,000 tested, 0.33% active;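 active = mean of two replicates above 20%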;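 also: 0% = compound-free wells with enzyme and 100% = wells lacking proteasome; stock transfer was 100 nL into about 20 µL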
# Target sequence (Q9Y5K5 whole entry, looked up): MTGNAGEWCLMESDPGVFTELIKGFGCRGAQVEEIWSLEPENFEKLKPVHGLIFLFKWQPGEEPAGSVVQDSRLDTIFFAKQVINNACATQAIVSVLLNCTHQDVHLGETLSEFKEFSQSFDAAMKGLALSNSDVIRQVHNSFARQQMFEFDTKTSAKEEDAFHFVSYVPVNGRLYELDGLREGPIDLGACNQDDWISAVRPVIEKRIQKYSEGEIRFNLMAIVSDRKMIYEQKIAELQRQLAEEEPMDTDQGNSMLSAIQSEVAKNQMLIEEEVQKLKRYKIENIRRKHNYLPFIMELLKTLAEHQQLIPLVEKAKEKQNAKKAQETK
#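 Reagent: Ub-AMC substrate; assay system: Proteasome-associated human UCH37 deubiquitinase; controls: no-proteasome and no-compound wells; read-out: % inhibition of Ub-AMC cleavage fluorescence; timing: 30 min preincubation with enzyme, 25 min cleavage at room temperature; signal: AMC fluorescence from Ub-AMC cleavage, excitation 355 nm, emission 460 nm; buffer or medium: Tris-HCl pH 7.4 plus ovalbumin, ATP-MgCl2, DTT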
# FGF22 binding: binders of recombinant human FGF22 by thermal shift; 340,000 tested, 1.5% active; calls only at 9.99 µM; Q9HCT0; SYPRO orange fluorescence; percent of sucrose octasulfate shift, DMSO zero;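 active = melting point raised past a set limit in the mean and every replicate; inconclusive = no clear call; three in four hits are not shown here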
# Target sequence (Q9HCT0 whole entry, looked up): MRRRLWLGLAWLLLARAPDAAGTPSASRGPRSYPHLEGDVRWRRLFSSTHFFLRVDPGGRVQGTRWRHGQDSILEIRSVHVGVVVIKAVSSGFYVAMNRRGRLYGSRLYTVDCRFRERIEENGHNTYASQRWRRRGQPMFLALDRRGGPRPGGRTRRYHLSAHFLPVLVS
# T cruzi inh: blocks replication of Trypanosoma cruzi. T. cruzi beta-gal in NIH3T3, luminescence, 90 h. inhibition, % (no concentration beside the values). 300,000 tested, 1.4% active. AID 1885;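 active = mean inhibition across valid replicates above about 55%, limit read from the data; inconclusive = mean below that limit but half or more replicates reach it; inactive = mean below it, under half of replicates reach it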;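 also: signal also drops with host cell toxicity which is not excluded here; 0% = plate median of DMSO wells and 100% = zero luminescence signal; higher percent means less beta-gal luminescence so fewer parasites; stock transfer was 50 nL into about 50 µL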
# rRNA inh HTS OD600: second read-out of rRNA inh HTS, no call of its own (marks repeat the call); OD600 change, %; measured here: OD600 growth;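 optical density of the mix in the first replicate; 0 = DMSO median and -100 = no signal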
# rRNA inh HTS RFP: recorded beside rRNA inh HTS, whose call it bears; RFP signal change, %; measured here: RFP humanized mutant strains;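 first replicate; 0 = DMSO median and -100 = no signal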
# * hit, by the source's call; i = inactive; ? = inconclusive; . = no result given; & = joins results of further samples. An excerpt. The share of hits here may be higher or lower than overall.
SMILES,rRNA inh HTS,rRNA inh HTS OD600,rRNA inh HTS RFP,Beta cell apopt,Bfl-1 A1 inh,MLL AF4-AF9 inh,E coli growth,UCH37 inh,FGF22 binding,T cruzi inh
CSc1nnc(-c2ccc(Cl)cc2Cl)o1,-10,-10,-2.5,-3,-0.7,.,0.69,-1.8,.,1
COCCOC(=O)C1=C(C)NC(=O)NC1c1c(F)cccc1Cl (stereo not given),9,3,-4.0,-3,0.4,8.2,0.71,1.1,i,-11
COC(=O)C1=C(C)N(c2ccc(Cl)cc2)/C(=C/c2cccs2)C1=O,.,.,.,6,0.5,.,.,1.2,.,13
CCOC(=O)C1(C#N)Cc2ccccc2C1,12,19,-0.1,.,.,-5.8,0.67,-1.0,i,.
COc1cccc(CNCC(=O)Nc2ccc(N3CCOCC3)cc2)c1,12,7,1.8,1,0.1,1.6,0.72,-0.5,i,-1
CCCCNC(=O)CCC(=O)NNc1nc2ccccc2c2nc(C)nn12,.,.,.,1,0.5,.,0.66,-0.5,.,-3
CC(NC(=O)Cc1ccccc1F)c1ccc(F)cc1 (stereo not given),5,7,-1.3,-9,-0.4,1.0,0.69,-2.3,i,-1
C=CCOc1ccc(CNc2nccs2)cc1OC,.,.,.,-1,?,.,0.66,1.6,.,-6
CCS(=O)c1ccccc1C(=O)OCC(=O)Nc1ccc2ccccc2c1 (stereo not given),-30,-26,-3.4,-5,0.7,-0.3,0.67,3.3,i,.
O=C(N[C@@H](Cc1ccccc1)C(=O)NCc1ccc(F)cc1)C1CCNCC1,0,-1,-0.2,-1,-0.1,1.0,0.71,0.8,i,2
Cc1ccc(-c2nc(Nc3ccccc3)n[nH]2)cc1,.,.,.,-3,-1.0,.,0.73,-0.3,.,.
COc1ccc(-n2c(-c3ccccc3)nc(=S)c3c2CCCC3)cc1,.,.,.,2,0.9,.,0.72,7.5,.,-12
O=C(Nn1cnnc1)C(c1ccccc1)c1ccccc1,.,.,.,-2,-0.9,.,0.76,2.6,.,-18
Cc1cc(Nc2ccc(C)c(Br)c2)n2nc(C)nc2n1,-6,-6,-1.6,-2,-1.8,1.4,0.72,1.7,i,-7
COc1cccc(CNC(=O)CCC2CCCN(C(=O)c3cc(C4CC4)[nH]n3)C2)c1 (stereo not given),8,3,3.6,-4,-2.4,-5.5,0.69,0.4,i,2
COc1ccc(-c2cc(CCCC(=O)N3CCN(c4ccc(OC)cc4)CC3)no2)cc1,-5,-9,0.9,8,-0.5,5.2,0.69,-3.1,i,7
Nc1nc2nc(-c3ccc(F)cc3)cc(C(F)(F)F)n2n1,14,7,0.2,9,0.3,1.7,0.71,i,i,-8
Cc1ccc(NC(=O)CN(C)C(=O)CSc2ccccc2F)cc1,19,13,1.0,-4,-0.5,-5.1,0.72,5.6,i,.
CCCC(C)c1nnc(NC(=O)COc2ccc3c(c2)OCO3)s1 (stereo not given),4,7,-2.1,1,0.1,0.0,0.61,1.6,i,-4
COc1ccc(-n2c(SCC(=O)NNC(=O)c3ccccc3C)nnc2-c2ccncc2)cc1,.,.,.,-3,-1.0,.,0.66,-2.2,.,-7
O=C(NCC1CCCO1)/C(=C/c1ccccc1)NC(=O)c1ccccc1 (stereo not given),7,14,3.0,-2,-0.5,-0.7,0.71,0.1,i,7
O=C(CN1CCN(c2nc(-c3ccccc3)cs2)CC1)NNC(=O)c1ccco1,-6,-13,-1.1,1,0.2,0.5,0.74,4.3,i,-11
COc1ccc2c(CC#N)c[nH]c2c1,.,.,.,-7,-0.8,.,0.67,-0.5,.,1
O=C(/N=C1/c2ccccc2CN1c1ccccc1)Nc1ccccc1,3,1,5.8,-10,-0.4,-4.3,.,.,i,9
CCCOc1ccc(N2C(=O)CC(SCc3nc4ccccc4[nH]3)C2=O)cc1 (stereo not given),-4,-1,1.5,-15,-1.2,-1.0,0.68,2.8,i,-11

# An excerpt of these results, with tabs.
molecule	rRNA inh HTS	rRNA inh HTS OD600	rRNA inh HTS RFP	Beta cell apopt	Bfl-1 A1 inh	MLL AF4-AF9 inh	E coli growth	UCH37 inh	FGF22 binding	T cruzi inh
CCCC(C)c1nnc(NC(=O)COc2ccc3c(c2)OCO3)s1 (stereo not given)	4	7	-2.1	1	0.1	0.0	0.61	1.6	i	-4
COc1ccc(-n2c(SCC(=O)NNC(=O)c3ccccc3C)nnc2-c2ccncc2)cc1	.	.	.	-3	-1.0	.	0.66	-2.2	.	-7

# Returning to the listing with the 3 entries that preceded the break.
SMILES,rRNA inh HTS,rRNA inh HTS OD600,rRNA inh HTS RFP,Beta cell apopt,Bfl-1 A1 inh,MLL AF4-AF9 inh,E coli growth,UCH37 inh,FGF22 binding,T cruzi inh
COc1ccc2c(CC#N)c[nH]c2c1,.,.,.,-7,-0.8,.,0.67,-0.5,.,1
O=C(/N=C1/c2ccccc2CN1c1ccccc1)Nc1ccccc1,3,1,5.8,-10,-0.4,-4.3,.,.,i,9
CCCOc1ccc(N2C(=O)CC(SCc3nc4ccccc4[nH]3)C2=O)cc1 (stereo not given),-4,-1,1.5,-15,-1.2,-1.0,0.68,2.8,i,-11
Fc1ccccc1NC(=S)N1CCC(c2ccccc2)C1 (stereo not given),-14,-12,-2.9,-10,-0.3,2.1,0.67,1.9,i,-16
COc1ccc(CC(=O)N/N=C(\C)c2cccc(NC(=O)C3CC3)c2)cc1,6,4,0.4,.,.,-0.5,.,.,i,-7
CCC(=O)c1ccc(OCC(=O)NCCCN2CCOCC2)cc1,2,10,-2.8,.,.,-1.4,0.69,-0.3,i,.
CS(=O)(=O)Nc1ccc(C(=O)NCc2cccnc2)cc1,8,1,0.0,-3,0.5,7.6,0.66,3.1,i,-4
COc1ccc(CCNC(=O)CN2C(=O)COc3ccc(S(=O)(=O)N4CCCC4)cc32)c(OC)c1,-5,-41,2.5,2,0.0,3.3,0.68,-0.1,i,-7
CC(O)c1nc2ccccc2n1Cc1ccc([N+](=O)[O-])cc1 (stereo not given),.,.,.,-4,-0.6,5.0,0.72,1.0,i,5
Cc1ccc(Nc2c(-c3ccccn3)nc3ccc(C)cn23)cc1,5,5,0.6,97*,-0.4,.,0.46*,-17,i,45
CN(C)[C@@H]1C(=O)C(C(N)=O)=C(O)[C@@]2(O)C(=O)C3=C(O)c4c(O)ccc(Cl)c4[C@@H](O)[C@H]3C[C@@H]12,-56,-76,-11,2,-0.6,1.2&7.3,.,-0.5,i,.
O=[N+]([O-])c1ccc(CN2CCN(c3ccc([N+](=O)[O-])cc3)CC2)cc1,-9,-9,0.2,5,-0.2,5.7,0.64,5.8,i,21
COc1cc(Br)cc(CN2CCN(c3ncccn3)CC2)c1O,-11,-6,0.2,20,1.1,2.3,0.64,5.5,i,-7
CCN1C(=O)c2ccc(C(=O)NCc3ccco3)cc2C1=O,4,6,-2.6,.,0.0,-2.1,.,.,i,-14
COc1ccc(OCCC(=O)NC2CCCCC2)cc1,18,5,1.8,-5,-3.8,0.5,0.64,4.3,i,-2
CCC(CO)Oc1cc(NC(=O)Cc2ccccc2F)c2ncn(C(C)C)c2c1 (stereo not given),2,6,-6.1,-6,1.0,-5.7,0.71,-1.2,i,.
COc1ccc(NC(=O)CN(C)C(=O)C(C)Oc2ccc(Br)cc2)cc1 (stereo not given),-6,-7,1.9,-2,1.1,-0.3,0.64,-2.3,i,0
Cc1ccc(C(=O)N2CC(C)SC2=Nc2cccc(S(=O)(=O)N(C)C)c2)cc1 (stereo not given),.,.,.,-9,-0.1,.,0.63,-0.7,.,-6
O=C(O)C1C2C=CC(O2)C1C(=O)Nc1ccccn1 (stereo not given),12,11,3.7,.,.,-0.4,0.7,-52,i,.
Cc1onc(-c2ccccc2)c1C(=O)OCC(=O)NC(C)c1ccc(Cl)cc1 (stereo not given),-6,-3,-0.7,-3,0.5,1.0,0.67,-0.7,i,.
NC1=NC(=Nc2cccc(S(N)(=O)=O)c2)c2ccccc21,7,3,-7.4,-11,-0.6,-10,0.64,6.2,i,1
CC(CNC(=O)CN1C(=O)NC2(CCCCC2)C1=O)c1ccccc1 (stereo not given),-1,10,0.9,.,.,-1.0,0.7,4.6,i,.
CCOc1ccc(S(=O)(=O)N2CCCC2)cc1,.,.,.,-5,-0.4,.,0.66,1.3,.,-5
Cc1[nH]nc(-c2ccc(O)c(C)c2O)c1-c1cnn(-c2ccccc2)c1,-59,-79,-33,-4,0.5,3.1,0.68,2.5,i,22
O=C(c1ccc(Cl)cc1)C(CN1CCCCC1)c1ccccc1 (stereo not given),13,7,4.9,91*,0.8,4.4,0.66,2.9,i,32
COc1cc2c(cc1NC(=O)Nc1ccccc1)oc1ccccc12,.,.,.,11,-0.5,.,0.77,1.8,.,40
COc1cc(CN(C2CCCCC2C)S(=O)(=O)c2ccc(S(=O)(=O)NC3CC3)cc2)cc(OC)c1OC (stereo not given),.,.,.,18,-0.3,1.0,0.74,1.2,i,49
O=C(CN1C(=O)NC2(CCc3ccccc32)C1=O)Nc1ccc(Br)cc1F (stereo not given),-7,-18,-1.0,.,.,-13,0.69,0.0,i,.

# Following part.
SMILES,rRNA inh HTS,rRNA inh HTS OD600,rRNA inh HTS RFP,Beta cell apopt,Bfl-1 A1 inh,MLL AF4-AF9 inh,E coli growth,UCH37 inh,FGF22 binding,T cruzi inh
Cc1occc1-c1nnc(SCc2cc(=O)n3cc(Br)ccc3n2)n1C,.,.,.,-6,0.4,.,0.68,1.0,.,.
CCN1C(=O)NC(c2cc(Br)ccc2OC)C(C(=O)OC)=C1C (stereo not given),.,.,.,-8,0.1,.,0.77,2.8,.,9
O=C(CSc1n[nH]c(=O)n1-c1cccnc1)Nc1ccccc1Cl,12,7,2.7,5,1.0,2.3,0.66,0.5,i,-13
O=C(Nc1ccc2c(c1)OCCO2)c1ccccn1,5,9,4.7,29,-8.0,-1.2,0.62,3.6,i,-5
CCOC(=O)C1CCCN(c2oc(-c3ccc(F)cc3)nc2C#N)C1 (stereo not given),-3,-5,0.8,1,-0.6,2.4,0.66,-110,i,12
Cc1ccc(S(=O)(=O)N(C)C)cc1NC(=O)/C=C/c1cccs1,.,.,.,-3,0.1,.,0.73,4.7,.,4
Cn1c(SCC(=O)N2CCCC2)nnc1-c1ccc2c(c1)OCO2,4,6,-0.9,-3,0.3,-3.0,.,.,i,2
COC(=O)c1ccc(-n2cnc3ccccc32)nc1,2,6,-0.5,-8,-2.1,-1.8,0.66,6.1,i,-3
CN(C)C(CNC1CC(C)(C)NC(C)(C)C1)c1cccc(F)c1 (stereo not given),1,11,1.0,.,0.7,?,0.71,-1.3,.,-14
CC1(C(=O)N/N=C/c2ccccc2)CC1(Cl)Cl (stereo not given),1,11,-7.5,-4,-0.3,1.6,.,.,i,0
CCc1ccc(-c2nc(SCC(=O)N(CCOC)c3c(N)n(Cc4ccccc4)c(=O)[nH]c3=O)n[nH]2)cc1,-2,-4,-1.2,.,-0.1,-2.2,0.68,3.4,i,-9

# High-throughput results: PubChem, several laboratories
